# Screens: PubChem, ICCB-Longwood Screening Facility, Harvard Medical School
# BasE inh – BasE siderophore biosynthesis inhibition; purified BasE, fluorescence polarization binding displacement; inhibition, % (no concentration beside the values); 84,000 compounds, 0.1% hits; AID 485350;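 active means both replicates above 25% with normal brightness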;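 further: 0% = negative plate control signal and 100% = positive plate control signal; stock transfer was 100 nL into about 30 µL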
# KSHV LANA nucl – LANA-nucleosome interaction inhibition; FITC-LANA1-23 / chicken nucleosome fluorescence polarization; hits give low values; z-score (concentration not given with the values); 51,000 compounds, 0.3% hits;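 active means both repeat wells score below -2 in polarization z-score versus plate sample wells, excluding overly bright wells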;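 further: 100 nL library stock added to about 30 µL; numbers are from one replicate; some results filed as inactive read as strong as hits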
#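 Test system: purified chicken nucleosomes with FITC-labelled LANA N-terminal peptide (1-23); Input: 240 nM purified chicken nucleosomes (480 nM peptide binding sites), final; Medium: TEN-BT buffer, pH 7.5; Timing: 10–45 min, room temperature; Technique: fluorescence polarization, 480 nm excitation, 535 nm parallel and perpendicular emission; Replication: duplicates.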
# * = called active by the depositor; x = not tested or not shown; & = joins results of further samples. Not all compounds are listed, so the mix of outcomes need not match the whole.
# Under each structure – BasE inh, KSHV LANA nucl
- CNc1cc(C(=O)O)ccn1
→ 1.2, -0.331
- Cc1ccc(-c2cc3c4c(C)n(C5CCCCC5)c(C)c4c(C)nn3c2)o1
→ -1.4, -0.629
- O=c1[nH]cc(NC(=S)N2CCOCC2)c(=O)[nH]1
→ -0.2, -1.33
- NC1CCN(c2ncccn2)CC1
→ 1.6, 0.494
- C=CCNC(=S)NN1CCN(C)CC1
→ 1.5, 0.174
- COc1ccccc1NC(=O)N(Cc1ccccc1)c1ccccn1
→ 0.6, x
- O=c1c2c(N3CCOCC3)cc(N3CCOCC3)nc2n(-c2ccccc2)c(=O)n1-c1ccccc1
→ 0.2, -0.176
- Cc1cc(C(F)(F)F)nc(SCC(=O)Nc2c(C)n(C)n(-c3ccccc3)c2=O)n1
→ -4.5, 0.847
- Cc1cc(C)c(S(=O)(=O)N2CCN(CCO)CC2)c(C)c1
→ -3.7, 1.92
- CSc1nc(-c2ccco2)nn1C(=O)c1ccc(Cl)cc1
→ -0.8, 1.26
- CCOC(=O)c1c(NC(=O)C(C)OC(=O)c2ccc(-n3cnnn3)cc2)sc2c1CCCC2 (stereo unspecified)
→ 2.3, x
- O=c1c(Cc2ccc(Br)cc2)csc2ccccc12
→ -0.7, x
- CCOC(=O)C1CCCN(CC(O)COc2ccc3ccccc3c2)C1 (stereo unspecified)
→ 2.3, -0.347
- O=C(OC1CCCCC1)c1c(F)c(F)c(F)c(F)c1F
→ -2.1, -0.0055
- CCC(C)c1ccc(O)c(NC(=O)c2cccnc2)c1 (stereo unspecified)
→ -0.2, x
- Cn1nc(C(F)(F)F)c(-c2ccccc2)c1NC(=O)COCC(=O)O
→ 0.4, -1.07
- CN(CC(=O)N1CCCc2ccccc21)S(=O)(=O)c1ccc2c(c1)OCCO2
→ 2.7, x
- CCCCCCCc1c(COC)[nH]c(=S)[nH]c1=O
→ 1.2, 0.008
- CC1(C)C2CCC1(CS(=O)(=O)N1CCC(C(=O)O)CC1)C(=O)C2 (stereo unspecified)
→ 3.1, x
- CCC(=O)Nc1ccc(C(=O)O)cc1NC(=O)CC
→ 0.0, x
- O=C(OC1CCOC1=O)c1cn(-c2ccccc2)nc1-c1ccccc1 (stereo unspecified)
→ 1.5, x
- Cc1cccc(NC(=S)N2CCCCC2C(N)=O)c1 (stereo unspecified)
→ 0.5, x
- CCCc1nnc(NC(=O)C(CC)Sc2nc(N)cc(=O)[nH]2)s1 (stereo unspecified)
→ -2.2, -0.527
- Cc1nc2cc(NS(=O)(=O)c3ccc(Oc4ccccc4)cc3)ccc2s1
→ 0.8, x
- O=C(CSc1nc(-c2ccc3c(c2)OCO3)nc2cc(=O)[nH]n12)NCCc1nc2ccccc2[nH]1
→ 1.0, -0.123
- Cc1[nH]c2ccccc2c1Cc1nnc(SCC(N)=O)n1Cc1ccco1
→ -0.5, 0.058
- COc1ccc(C2=C/C(=C/c3ccc4c(c3)OCO4)C(=O)O2)cc1
→ 16.0, -0.962
- NC(=O)c1ccc(N2CCCCC2)c(N)c1
→ 0.4, -0.0535
- C#CCn1c(-c2nonc2N)nc2ccccc21
→ -2.4, 0.332
- COc1ccc(CNC(=O)Cc2csc(N3CCCC3=O)n2)cc1
→ 5.2, x
- CCCOC(=O)C(C)Oc1ccc2c(=O)c(-c3ccccc3Cl)coc2c1 (stereo unspecified)
→ 1.9, x
- O=C(NC1CCCC1)C(c1ccccc1)N(Cc1ccc2c(c1)OCO2)C(=O)c1ccco1 (stereo unspecified)
→ 1.7, 0.032
- Cc1ccc(CN(C)CC(=O)Nc2ccc3c(c2)OCCCO3)cc1
→ 1.2, x
- CCn1c(=O)c(=O)[nH]c2cc(C(=O)NCC(c3ccc(OC)cc3)N(C)C)ccc21 (stereo unspecified)
→ 0.8, x
- Cn1c2ccccc2c2cc(C3Nc4ccccc4C(=O)N3O)ccc21 (stereo unspecified)
→ 1.0, x
- O=C(O)C1CC(c2ccccc2)=C(c2ccccc2)CC1C(=O)c1ccccc1 (stereo unspecified)
→ 0.9, x
- CSc1nc2c(c(=O)n1Cc1ccccc1)SC(C)C2 (stereo unspecified)
→ -0.7, -0.243
- N#CC1=C(S)N(c2ccccc2)C(c2ccc(-c3cccc(Cl)c3)o2)NC1=O (stereo unspecified)
→ 4.4, x
- O=C(Nc1nnc(-c2ccccc2)o1)C(c1ccccc1)c1ccccc1
→ 0.6, 2.15
- O=C(Cn1ccc(=O)[nH]c1=O)OCc1c(Cl)cccc1Cl
→ 1.1, x
- N#C/C(=C(/O)CSc1nnc(N)s1)c1nc2ccccc2s1
→ 1.7, x
- Cc1c(-c2ccccc2)sc(NC(=O)C2CC(=O)N(Cc3ccco3)C2)c1C(=O)N1CCOCC1 (stereo unspecified)
→ 1.6, x
- CN(C)c1ccc(NC(=O)Nc2ccccc2F)cc1
→ x, -1.35
- CCCCN(C)C(=O)Cn1nc(CC)n2c(cc3sccc32)c1=O
→ -2.5, -0.2
- CC1=CC(=O)C(N2CCN(C(c3ccccc3)c3ccccc3)CC2)=CC1=O
→ 2.0, x
- CN1CCN(C(c2ccccn2)c2c(-c3ccccc3)n(O)c3ccccc23)CC1 (stereo unspecified)
→ 1.5, x
- CSC1=C(C#N)C(c2ccc(C(C)C)cc2)C2=C(CCCC2=O)N1 (stereo unspecified)
→ 1.8, -0.611
- Cc1ccc(C2=NN(C(=O)COc3cccc(-n4cnnn4)c3)C(c3ccco3)C2)cc1 (stereo unspecified)
→ 1.8, x
- Cn1cccc1C(=S)N=P(N1CCOCC1)(N1CCOCC1)C(C)(C)C
→ 0.9, x
- C=CCOc1ccccc1/C=C1/SC(N2CCN(C)CC2)=NC1=O
→ 1.1, 0.675
- CCCCn1c(SCC(=O)N2c3ccccc3Sc3ccccc32)nc2c1c(=O)n(C)c(=O)n2C
→ 2.5, 0.023
- Cc1oc2ccc(O)c(CN3CCCCC3)c2c1C(=O)NCc1ccccc1
→ -0.3, 0.41
- CC(=O)N(c1ccccc1)c1nc(CSc2nnc(-c3ccc(C)cc3)o2)cs1
→ -1.9, x
- CN(C(=O)c1nn(C)c2c1CSc1ccccc1-2)c1ccccc1
→ -0.5, -1.85
- O=C(NCN1CCOCC1)c1cccnc1
→ -0.5, 0.372
- CC(=O)Nc1ccc(Br)c(OC(F)F)c1
→ 1.7, x
- CCCCn1c(=O)n(CC(=O)c2[nH]c(C)c(C(=O)OCC)c2C)c(=O)c2c1ncn2Cc1ccco1
→ -2.5, x
- CC(C)(C)OC(=O)N1CCN(Cc2ccccc2)CC1
→ 0.9, x
- COc1ccc(SCCc2ccncc2)cc1
→ 0.1, -0.396
- O=C1OCCN/C1=C/C(=O)c1ccc(Cl)cc1
→ 0.1, -0.38

# Other entries
# Under each structure – BasE inh, KSHV LANA nucl
- O=C(O)COc1ccccc1C=C1C(=O)c2ccccc2C1=O
→ 1.5, x
- c1ccc(NCc2ccncc2)cc1
→ 4.0, -1.06
- Cc1ccc(CSc2nc(C)c(Oc3cccc(C(F)(F)F)c3)c(=O)n2C)cc1
→ -0.3, x
- CCN(CC(=O)Nc1ccc(OC)cc1)Cc1nc2sc(C(=O)OC)c(C)c2c(=O)[nH]1
→ -5.2, x
- COc1ccc(-c2csc3nc[nH]c(=O)c23)cc1OC
→ 6.3, -0.253
- NC(=O)CN(C1CCCCC1)S(=O)(=O)c1ccc(Br)cc1
→ 2.1, -0.162
- O=C(CN1C(=O)CCC1=O)NCc1ccc2c(c1)OCO2
→ -0.8, x
- Cc1ccc(C(=O)N/N=c2\oc3ccccc3cc2C(N)=O)cc1
→ -2.7, 0.484
- CC(C)NC(=O)/C=C/c1ccco1
→ -0.9, -0.319
- Cc1ccc2sc(C(=O)O)cc2c1
→ 0.1, x
- CC(=O)N=C(N=Nc1c(O)[nH]c2ccccc12)NC(C)=O
→ -0.9, 0.427
- Clc1cc(N2CCOCC2)nc(-c2ccccc2)n1
→ x, 0.658
- CCOc1cc(-c2nn3c(C(C)(C)C)nnc3s2)cc(OCC)c1OCC
→ -2.0, -0.594
- Cn1nc(-c2ccc(C(=O)N3CCN(CCO)CC3)cc2)c2ccccc2c1=O
→ 5.4, 0.444
- O=C(NC1C2CC3CC(C2)CC1C3)c1cc2ccccc2o1 (stereo unspecified)
→ 2.0, -0.831
- Cc1ccc(NC(=O)CC2NCCN(Cc3ccccc3)C2=O)cc1 (stereo unspecified)
→ -1.3, 0.134
- COCCn1c(C)cc(/C=N/n2c(-c3ccccc3C)n[nH]c2=S)c1C
→ 2.4, x
- Cn1c(C(=O)Nc2ccc(C(=O)N3CCCC3)cc2)cc(=O)n(C)c1=O
→ -1.2, 0.627
- COc1ccc(C(C)=CC(=O)C(C)(C)C)cc1
→ 1.4, 0.721
- CCCc1c(NC(=O)Nc2ccc(F)cc2)cnn1-c1ccccc1
→ 1.1, -0.226
- O=C(CCCN1C(=O)C2C3C=CC(C3)C2C1=O)N1CCN(c2ccccc2F)CC1 (stereo unspecified)
→ 1.1, 0.0955
- NS(=O)(=O)c1ccc(NC(=O)CS)cc1
→ -2.0, 0.0565
- COc1ccc(C2CC(c3ccc4ccccc4c3)=NN2C)cc1 (stereo unspecified)
→ 3.0, x
- CC1=C(C(=O)OC(C)C)C(c2cn(-c3ccccc3)nc2-c2ccc(OC(C)C)cc2)NC(=O)N1 (stereo unspecified)
→ -1.4, x
- N#CSc1ccc(N2CCCCC2)cc1
→ 1.1, -0.601
- CC(=O)OCC(=O)[C@@]1(O)[C@H](OC(C)=O)CC2C3CCC4=CC(=O)C=C[C@]4(C)[C@@]3(F)[C@@H](O)C[C@@]21C (stereo partly specified)
→ -0.7, 0.49&0.325
- CC(C(=O)Nc1ccc(F)cc1)n1nnc2ccccc2c1=O (stereo unspecified)
→ -1.8, -0.0565
- CC(/C=N/N1C(=O)c2ccccc2C1=O)c1ccccc1 (stereo unspecified)
→ 4.4, x
- c1ccc(CNCc2ccc3c(c2)OCCO3)cc1
→ -0.9, 0.245
- CCOC(=O)c1sc2ncn(/N=C/c3cccnc3)c(=O)c2c1C
→ -0.6, -0.526

# Part of the list above, as comma-separated lines:
compound,BasE inh,KSHV LANA nucl
O=C(O)COc1ccccc1C=C1C(=O)c2ccccc2C1=O,1.5,x
c1ccc(NCc2ccncc2)cc1,4.0,-1.06
Cc1ccc(CSc2nc(C)c(Oc3cccc(C(F)(F)F)c3)c(=O)n2C)cc1,-0.3,x
CCN(CC(=O)Nc1ccc(OC)cc1)Cc1nc2sc(C(=O)OC)c(C)c2c(=O)[nH]1,-5.2,x
COc1ccc(-c2csc3nc[nH]c(=O)c23)cc1OC,6.3,-0.253
NC(=O)CN(C1CCCCC1)S(=O)(=O)c1ccc(Br)cc1,2.1,-0.162
O=C(CN1C(=O)CCC1=O)NCc1ccc2c(c1)OCO2,-0.8,x

# The list continues:
# Under each structure – BasE inh, KSHV LANA nucl
- Cc1ccc(Cn2c(=O)c3ccccc3n3c(SCC#N)nnc23)cc1
→ 1.5, x
- O=C(O)/C(=C\c1ccc(-c2ccc(F)cc2)o1)c1ccccc1
→ -2.8, x
- O=C(O)c1cccc(NCc2ccc(Cl)cc2)c1
→ 3.9, x
- O=C(Cc1ccccc1)NN1C(=O)CSC1=S
→ 2.4, -0.45
- CCN(CC)c1ccc2nnc(CCC(=O)N3CCCC3)n2n1
→ -0.8, 1.14
- CCCCCc1ccc(-c2ccc(C(=O)O)cc2)nc1
→ 3.5, -0.311
- CCCCS(=O)(=O)Nc1ccc(C)cn1
→ -3.0, x
- COC(=O)C(O)(CC(=O)Nc1ccc(OC(F)(F)F)cc1)C(F)(F)F (stereo unspecified)
→ 2.9, -1.64
- Cc1cc(Nc2ccccc2)n(-c2ccc(C(=O)O)cc2)n1
→ -0.1, x
- CC(=O)N1N=C2c3ccccc3CCC2C1c1cccs1 (stereo unspecified)
→ -8.2, x
- COc1ccc(NC(=O)c2cccnc2N2CCCC2)cc1
→ 3.1, -0.187
- CC(=O)N1c2ccc(S(=O)(=O)N3CCC(C(=O)N4CCN(c5cc(Cl)ccc5C)CC4)CC3)cc2CC1C (stereo unspecified)
→ 0.6, -0.914
- O=C(COC(=O)Cc1c[nH]c2ccccc12)Nc1ccc(S(=O)(=O)N2CCCC2)cc1
→ -5.3, x
- CCNC(=O)c1cccc(N)c1
→ 1.6, x
- CCn1nc(C(C)C(=O)O)c2ccccc2c1=O (stereo unspecified)
→ 0.4, -0.935
- COc1cccc(C2NC(C(=O)O)Cc3c2[nH]c2ccccc32)c1 (stereo unspecified)
→ -1.2, 1.08
- OC(CNCCNc1nccc(C(F)(F)F)n1)c1ccccc1 (stereo unspecified)
→ -2.1, 1.45
- COc1ccc(C)cc1CC(=O)O
→ -1.0, x
- CC(=NCC1CCNCC1)C1=C(O)CC(C)(C)CC1=O
→ 3.1, x
- CCCC12CN3CC(CCC)(CN(C1)C3c1ccccc1O)C2=O (stereo unspecified)
→ -1.7, 1.44
- CCc1ccc2nc3sc(C(N)=O)c(N)c3cc2c1
→ 1.0, 0.431
- O=C(CNCC1CCCO1)N1CCCC1 (stereo unspecified)
→ 0.2, 0.383
- COc1ccc(OC)c(C(c2c(O)[nH]c(=O)[nH]c2=O)N(Cc2ccccc2)C(C)C)c1 (stereo unspecified)
→ 1.3, 0.037
- COc1cc(C(=O)O)cc2c1OC(C)C2 (stereo unspecified)
→ -0.5, x
- O=C(NCc1ccc2c(c1)OCO2)c1ccccc1Cl
→ -1.0, 0.193
- O=C1OC(c2ccc(O)cc2)(c2ccc(O)cc2)c2ccccc21
→ -1.6, -0.172&0.462
- O=C1C2C(C(=O)N1c1ccccc1)N1CCCN1C2c1ccccc1 (stereo unspecified)
→ 1.2, -0.396
- Clc1cccc(-c2cnc(CSc3nnc(C4CC4)n3-c3ccccc3)o2)c1
→ -2.0, x
